Wnt bcat act – Wnt/beta-catenin pathway activators, primary screen, cell-based, plate reader, single point; Wnt/beta-catenin reporter cell assay, activator; activation, % at 9.35 µM; 300,000 tested, 1.2% active; AID 743398, 2014; in the data active means activation above about 30%, passing the limit was not always enough;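 further: 0% = neutral control wells and 100% = positive control wells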
cardiac RTF act – cardiac RTF calcium sensitivity activators, primary screen, biochemical, IANBD-TnC fluorescence, EC20 calcium; IANBD-labeled TnC RTF fluorescence at EC20 calcium; 0% EC20 calcium, 100% full calcium; 340,000 tested, 0.24% active; AID 493008, 2010; Troponin I, cardiac muscle (Homo sapiens) + Troponin T, cardiac muscle (Homo sapiens) + …; activation, % at 7.2 µM;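 active means activation above the mean over all tested compounds plus 3 SD, cut at about 30% in these data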;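 further: rise in fluorescence read as greater calcium sensitivity of cardiac thin filaments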
V-ATPase pH – regulators of yeast V-ATPase proton pumping, primary screen, pHLuorin cytosolic pH fluorescence | S. cerevisiae | response, % at 10 µM | 350,000 tested, 0.37% active | AID 504577, 2011; in the data active means response mostly above about 7.3%, no sharp cut-off; inactive means mostly below about 5.4%; further: actives read high; inactives centre near 0; some compounds called inactive have numbers as strong as hits; reference of the scale not given here
Cardiac RTF inh – cardiac RTF calcium sensitivity inhibitors, primary screen, biochemical, IANBD-TnC fluorescence, EC70 calcium; Troponin I, cardiac muscle (Homo sapiens) + Troponin T, cardiac muscle (Homo sapiens) + …; 340,000 tested, 0.12% active; IANBD-labeled cardiac RTF, Ca2+ fluorescence; inhibition, % at 7.15 µM;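 active means inhibition above the mean inhibition of all tested compounds plus 3 SD, cut at about 17% in these data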;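 further: assay run at fixed EC70 calcium of 1.6 mM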
Pemphigus Ab inh – inhibitors of pemphigus antibody binding to DSG3, primary screen, biochemical, bead-based, flow cytometry, scFv-GFP. AID 588358, 2011. binding (percent of control), % at 10 µM. Desmoglein-3 (Homo sapiens), P32926. DSG3-coupled beads, scFv-anti-DSG3-GFP binding; active compounds read low. 310,000 tested, 0.48% active;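 active means binding more than 3 SD below its plate's average and above zero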;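 further: hits lower antibody fragment binding to DSG3; some compounds called inactive have numbers as strong as hits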
Target sequence (P32926 whole entry, looked up, the tested form may be a part): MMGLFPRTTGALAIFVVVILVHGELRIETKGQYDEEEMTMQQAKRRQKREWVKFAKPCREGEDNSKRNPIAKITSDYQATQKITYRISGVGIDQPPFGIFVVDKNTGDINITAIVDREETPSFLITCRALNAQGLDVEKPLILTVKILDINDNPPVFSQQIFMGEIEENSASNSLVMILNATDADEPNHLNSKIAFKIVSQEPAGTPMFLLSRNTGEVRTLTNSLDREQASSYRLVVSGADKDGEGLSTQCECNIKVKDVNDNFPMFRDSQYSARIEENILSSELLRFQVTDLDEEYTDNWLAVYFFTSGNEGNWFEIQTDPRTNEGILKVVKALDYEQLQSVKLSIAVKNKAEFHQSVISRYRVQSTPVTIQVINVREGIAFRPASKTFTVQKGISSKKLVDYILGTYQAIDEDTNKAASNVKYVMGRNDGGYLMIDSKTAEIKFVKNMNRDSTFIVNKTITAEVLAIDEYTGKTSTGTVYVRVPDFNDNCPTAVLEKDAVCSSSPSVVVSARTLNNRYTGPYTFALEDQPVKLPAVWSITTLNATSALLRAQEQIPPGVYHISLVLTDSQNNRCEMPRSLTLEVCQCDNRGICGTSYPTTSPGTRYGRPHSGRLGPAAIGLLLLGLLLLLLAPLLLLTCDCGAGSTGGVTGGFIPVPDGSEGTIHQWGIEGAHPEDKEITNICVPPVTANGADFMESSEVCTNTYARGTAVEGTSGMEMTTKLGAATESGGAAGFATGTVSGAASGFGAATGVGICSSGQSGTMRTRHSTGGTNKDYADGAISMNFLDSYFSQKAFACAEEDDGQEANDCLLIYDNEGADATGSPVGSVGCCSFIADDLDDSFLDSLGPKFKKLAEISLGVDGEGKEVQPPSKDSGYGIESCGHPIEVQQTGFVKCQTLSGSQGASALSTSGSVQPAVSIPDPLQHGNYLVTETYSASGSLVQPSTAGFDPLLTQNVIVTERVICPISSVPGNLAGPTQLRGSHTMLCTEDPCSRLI
* = called active by the depositor; & = joins results of further samples. This is a subset; rates above refer to the full screens.

cpd | Molecule | Wnt bcat act | cardiac RTF act | V-ATPase pH | Cardiac RTF inh | Pemphigus Ab inh
1 | COc1ccc(CC2NCC(O)C2OC(C)=O)cc1 (stereo unspecified) | -3 | 2 | 0 | 0 | 100
2 | CC1[C@H]2Cc3ccc(O)cc3[C@]1(C)CCN2C (stereo partly specified) | -1 | -2 | -1 | -1 | 99
3 | CC1CCC2C(C)C(=O)OC3OC4(C)CCC1C32OO4 (stereo unspecified) | 1 | -4 | 1 | -7 | 97
4 | O=C(O)CCCOc1ccc(Cl)cc1Cl | 2 | -2 | -2 | 8 | 103
5 | CN1C[C@H](CNC(=O)OCc2ccccc2)C[C@@H]2c3cccc4c3c(cn4C)C[C@H]21 | 1 | 4 | 1 | -8 | 109
6 | Oc1ccc2c3c1OC1[C@H](O)CC[C@@]4(O)[C@@H](C2)N(CC2CC2)CC[C@]314 (stereo partly specified) | -1&-1 | 6&-6 | 2&3 | -3&2 | 107&102
7 | CNC1(c2ccccc2Cl)CCCCC1=O (stereo unspecified) | -1 | 0 | -3 | 4 | 100
8 | CCCCCC[N+](=O)[O-] | 1 | -2 | 0 | 4 | 100
9 | CN1CCC[C@@H]1CCO[C@](C)(c1ccccc1)c1ccc(Cl)cc1 | 0 | 1 | -5 | 14 | 102
10 | C=CCN1CC[C@]23c4c5ccc(O)c4O[C@H]2/C(=N/NC(=O)c2ccccc2)CC[C@@]3(O)[C@H]1C5 | 0 | 5 | 3 | -11 | 107
11 | S=c1[nH]c2ccccc2[nH]1 | -1 | 2 | 0 | -1 | 97
12 | COc1cccc([C@@]2(O)CCCC[C@@H]2CN(C)C)c1 | -4 | 5 | -3 | -3 | 112
13 | CN1CC[C@]23c4c5ccc(O)c4OC2C(O)C=CC3[C@H]1C5 (stereo partly specified) | 0 | -7 | 3 | -4 | 98
14 | C[C@]12CCC3=C4CCC(=O)C=C4CC[C@H]3C1CC[C@@H]2O (stereo partly specified) | -2 | 2 | 0 | -3 | 100

Structures listed so far that have a carbonyl joined to an NH by a bond outside any ring:
cpd | Molecule | Wnt bcat act | cardiac RTF act | V-ATPase pH | Cardiac RTF inh | Pemphigus Ab inh
5 | CN1C[C@H](CNC(=O)OCc2ccccc2)C[C@@H]2c3cccc4c3c(cn4C)C[C@H]21 | 1 | 4 | 1 | -8 | 109
10 | C=CCN1CC[C@]23c4c5ccc(O)c4O[C@H]2/C(=N/NC(=O)c2ccccc2)CC[C@@]3(O)[C@H]1C5 | 0 | 5 | 3 | -11 | 107

Profiles, quoted from the list. Order of values: Wnt bcat act | cardiac RTF act | V-ATPase pH | Cardiac RTF inh | Pemphigus Ab inh
CC1[C@H]2Cc3ccc(O)cc3[C@]1(C)CCN2C (stereo partly specified) is listed as -1 | -2 | -1 | -1 | 99
CN1C[C@H](CNC(=O)OCc2ccccc2)C[C@@H]2c3cccc4c3c(cn4C)C[C@H]21 is listed as 1 | 4 | 1 | -8 | 109
CNC1(c2ccccc2Cl)CCCCC1=O (stereo unspecified) is listed as -1 | 0 | -3 | 4 | 100
S=c1[nH]c2ccccc2[nH]1 is listed as -1 | 2 | 0 | -1 | 97

Looked up by structure from the entries so far, 2 records:
cpd | Molecule | Wnt bcat act | cardiac RTF act | V-ATPase pH | Cardiac RTF inh | Pemphigus Ab inh
4 | O=C(O)CCCOc1ccc(Cl)cc1Cl | 2 | -2 | -2 | 8 | 103
5 | CN1C[C@H](CNC(=O)OCc2ccccc2)C[C@@H]2c3cccc4c3c(cn4C)C[C@H]21 | 1 | 4 | 1 | -8 | 109
